Measles inh: inhibitors of measles virus growth in infected cells. infected Vero cells, GFP fluorescence, 64 h; active compounds read low. z-score (no concentration beside the values). 0.1% of 33,000 active;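 active means z-score under -3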;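 further: score is relative to mean and SD of the compound wells of a plate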
Active calls of the source: *. The list is partial, so the mix of outcomes need not match the whole.

item	Measles inh	SMILES
1	-1.2	O=C1CC(c2ccccc2)CN1C(=O)c1ccccc1Cl (centres undefined)
2	-0.28	Cc1ccc(-c2nc3ccccc3c(=O)o2)cc1[N+](=O)[O-]
3	-1.6	COc1cccc(NS(=O)(=O)c2cc(C(=O)O)ccc2NCCc2ccc(Cl)cc2)c1
4	-1.1	Cc1ccc(OCCn2c(SCC(N)=O)nc3ccccc32)cc1
5	-0.59	CC(C)(C)C1CCc2c(sc3nc(-c4ccccc4F)oc(=O)c23)C1 (centres undefined)
6	0.94	CC(=O)NCCn1c(SCC(=O)NC2CCCC2)nc2ccccc2c1=O
7	-1.1	Cc1nn(C(=O)c2ccco2)c(C)c1Sc1ccccc1
8	-0.87	CS(=O)(=O)N(CC(=O)NC1CCCCC1)c1cc(C(F)(F)F)ccc1Cl
9	-0.28	CCc1c(-c2ccccc2)n(CCc2ccccc2)c2nc3c(c(=O)n(C)c(=O)n3C)n12
10	-0.31	CC1CCN(S(=O)(=O)c2ccc3nc(-c4ccccn4)cc(C(=O)NC(C)c4ccccc4)c3c2)CC1 (centres undefined)
11	0.23	COC(=O)C1=C(C)N(C)C(C)=C(C(=O)OC)C1c1cccs1
12	-1.1	CC(C(=O)c1ccc(-c2ccccc2)cc1)[n+]1ccc2ccccc2c1 (centres undefined)
13	-0.63	O=C(CN1C(=O)c2cccc([N+](=O)[O-])c2C1=O)Nc1nc(-c2ccccc2)cs1
14	0.84	CC(=O)Nc1cc(C(=O)NCCc2ccc(C)cc2)ccc1Sc1ccc(Cl)cc1
15	3.1	Cc1cccc(OCCCC(=O)Nc2ccc(N3CCOCC3)cc2)c1
16	1.2	COC(=O)C(C)Sc1nc(-c2ccc([N+](=O)[O-])cc2)nc2c1c(=O)n(C)c(=O)n2C (centres undefined)
17	0.02	CCc1nnc(SCC(=O)Nc2ccccc2OC)nc1CC
18	2.3	CCOC(=O)C1C(=O)CC(C)(O)C(C(=O)OCC)C1c1ccc(O)cc1 (centres undefined)
19	-0.24	O=C1C(Cc2ccccc2)N=C2c3ccccc3N=C(SCc3cc(=O)n4cc(Br)ccc4n3)N12 (centres undefined)
20	-0.8	CCOc1ccc(-c2nc3cc(NC(=O)COc4cccc(C)c4)ccc3o2)cc1
21	-0.35	O=C(NCC1CCCO1)c1ccc2c(=O)n(Cc3ccco3)c(SCc3ccc([N+](=O)[O-])cc3)nc2c1 (centres undefined)
22	0.6	COc1ccc2oc(=Nc3ccc(C(=O)O)cc3)c(C(N)=O)cc2c1
23	-0.62	C=CCN(c1ccccc1)S(=O)(=O)c1ccc(N2C(=O)c3ccccc3C2=O)cc1
24	0.09	O=S(=O)(NCc1ccc2c(c1)OCO2)c1cccc2nonc12

Single entries from the entries so far.
Reading for compound 24 in Measles inh: 0.09
Reading for compound 22 in Measles inh: 0.6
Reading for compound 19 in Measles inh: -0.24
Reading for compound 20 in Measles inh: -0.8

New compounds follow:
item	Measles inh	SMILES
25	0.31	O=C(NCCCN1CCCCC1)C1CCC(=O)N1CCc1ccccc1 (centres undefined)
26	-0.35	CCOC(=O)Cc1cnc(NC(=O)CSc2nc(C)cc(C)n2)s1
27	0.88	O=C(O)Cc1ccc(O)cc1
28	0.29	C=CCN1C(=O)C(C(c2ccc(Cl)cc2)C2C(=O)NC(=S)N(CC=C)C2=O)C(=O)NC1=S (centres undefined)
29	-0.87	COc1ccc(CCC(=O)Nc2ccc(-c3noc(-c4cccc(OC)c4)n3)cc2)cc1
30	-0.1	O=C1CSCC(C(=O)O)N1 (centres undefined)
31	-1.1	O=C(C1=C(O)C(=O)N(Cc2cccnc2)C1c1ccccc1)c1ccco1 (centres undefined)
32	-0.95	O=C(O)c1ccc(Cn2c(SCc3cc(=O)n4cc(Br)ccc4n3)nc3ccsc3c2=O)cc1
33	-1	COc1ccc(C(=O)C[n+]2cn(C(F)F)c3ccccc32)c(F)c1
34	0.87	O=C(O)CSc1nnnn1-c1ccccc1
35	-0.24	COc1cc(C(=O)Nc2nc3ccc([N+](=O)[O-])cc3s2)cc(OC)c1OC
36	-0.24	O=c1[nH]c2ccc(S(=O)(=O)N3CCc4ccccc4C3)cc2o1
37	1.1	COCCCNC(=O)c1cc(Sc2ccccc2C(F)(F)F)nc2ccccc12
38	-0.53	CCOc1ccc(NC(=O)Cn2c(=O)n(-c3cccc(C)c3)c(=O)c3c(C)c(C)sc32)cc1
39	-0.3	CSc1ccc(C2C(C(=O)OC3CCCCC3)=C(C)NC3=C2C(=O)CCC3)cc1 (centres undefined)
40	-0.65	CC1(C)CC(=O)C(C(C2=C(O)CC(C)(C)CC2=O)c2ccc(Cl)c([N+](=O)[O-])c2)C(=O)C1 (centres undefined)
41	0.61	Cc1ccc(S(=O)(=O)C2(C(=O)Nc3ccc(Br)c(C)c3)CC2)cc1
42	-0.21	Cc1sc2[nH]c(=S)n(-c3ccccc3)c(=O)c2c1-c1ccccc1
43	-0.16	C=CCOC(=O)C1=C(C)NC(=O)NC1c1cn(-c2ccccc2)nc1-c1ccc(Br)cc1 (centres undefined)
44	0.43	CCOc1ccc2nnc(-c3ccc(Br)cc3)n2n1
45	0.13	C(=Cc1nc2cc(-c3ccccc3)ccc2o1)c1ccccc1
46	-0.47	COc1cc(C(=O)N2CCN(C(=O)c3cc(OC)c(OC)c(OC)c3)C(C)C2)cc(OC)c1OC (centres undefined)
47	1.4	Cc1ccccc1C(=O)Nc1cccc(F)c1
48	-0.64	CCCOc1ccc(N2CC(C(=O)NC(C)C)CC2=O)cc1 (centres undefined)
49	1.5	O=C(c1cc(-c2ccc(Br)cc2)on1)N1CCN(c2ccccc2)CC1
50	-1.6	CCc1ccc(CN2C(=O)c3ccccc3C2C(=O)NCc2cccnc2)cc1 (centres undefined)
51	-0.78	CC(=O)Nc1ccc(S(=O)(=O)Nc2nc3ccccc3s2)cc1
52	1.9	Cc1ccc(C)c(NC(=O)CSc2nnnn2-c2ccccc2)c1
53	-0.07	COc1ccc(S(=O)(=O)N2CCN(Cc3c[nH]c4ccccc34)CC2)cc1
54	1.8	CC(=O)NCC(=O)N(C)C(C(=O)Nc1ccc2c(c1)OCO2)c1ccccc1 (centres undefined)
55	-0.28	COc1cc(C(=O)Nc2ccc(NC(=O)c3ccccc3)c(Cl)c2)cc(OC)c1OC
56	0.35	COc1cccc(-c2cc(C(=O)NCc3ccccc3)no2)c1
57	0.83	O=C(c1cccc(F)c1)N1CCN(C(=O)c2cccs2)CC1
58	-2	O=C(Oc1ccc2ccccc2c1)c1ccc(Cl)c([N+](=O)[O-])c1
59	-0.27	C=CCOC(=O)C1=C(C)Nc2nc3ccccc3n2C1c1cccs1 (centres undefined)
60	0.16	Cc1ccc(NC(=O)c2c(C)nc3sc(C(=O)NCCC4=CCCCC4)c(N)c3c2-c2cccnc2)c(C)c1
61	0.51	CC12CCC(C(=O)N3CCCCC3)(OC1=O)C2(C)C (centres undefined)
62	0.52	CCN(C(=O)Cn1ncc2c(=O)oc3ccccc3c21)c1cc(C)ccc1C
63	-0.53	COc1ccc(NC(=O)c2cccc([N+](=O)[O-])c2C)c(OC)c1
64	-0.14	CCOC(=O)c1cnc2c(C)cc(Cl)cc2c1Nc1ccc(N(C)C)cc1
65	-1.4	CC1=C(C(=O)Nc2ccccn2)C(c2cccc(Oc3ccccc3)c2)C2=C(CC(C)(C)CC2=O)N1 (centres undefined)
66	-0.85	Cc1cccc(N(CC(=O)Nc2ccc3ccccc3c2)S(C)(=O)=O)c1C
67	1.1	COc1ccc(C2CC(C(F)(F)F)n3nc(C(=O)Nc4ccccc4SC)c(Cl)c3N2)cc1 (centres undefined)
68	0.2	CC(=O)Nc1ncc(Br)cc1[N+](=O)[O-]
69	-1.4	CCc1ccc(C(=O)c2c[nH]c3ccc(Cl)cc3c2=O)cc1
70	-0.5	N#Cc1c(N)nc(SC2CCCCC2=O)c(C#N)c1-c1ccc(O)cc1 (centres undefined)
71	-0.02	CCOc1ccc(NC(=O)c2cccc([N+](=O)[O-])c2C)cc1
72	1.4	O=C(NCCCN1CCOCC1)C1C2C=CC3(CN(Cc4ccccc4Cl)C(=O)C13)O2 (centres undefined)
73	-1.2	CC1CCCCN1S(=O)(=O)c1ccc2[nH]c(=O)cc(C(=O)NCCN3CCN(c4ccccc4F)CC3)c2c1 (centres undefined)
74	-0.07	COc1ccc(OC)c(NC(=O)c2c(NCc3ccc(C)o3)sc3c2CCC(C)C3)c1 (centres undefined)
75	-1	COc1ccccc1CNC(=O)CSc1nc2[nH]ncc2c(=O)n1-c1ccccc1
76	0.01	Cc1c(N2C(=O)CSC23C(=O)Nc2ccccc23)c(=O)n(-c2ccccc2)n1C (centres undefined)
77	1	O=C(Nc1ccncc1)c1cc2c(ccc3ccccc32)oc1=O
78	-0.67	Cc1c(C(=O)NC(C)CCc2ccccc2)oc2ccc(S(=O)(=O)N3CCOCC3)cc12 (centres undefined)
79	0.17	O=C(NCc1ccc2c(c1)OCO2)c1c[nH]c2ccc(S(=O)(=O)Nc3cccc(C(F)(F)F)c3)cc2c1=O
80	1.7	O=C(CCC(=O)OCC(F)(F)F)Nc1nc2ccccc2s1

(more compounds)
item	Measles inh	SMILES
81	0.73	COc1ccc(C(=O)OCC(=O)c2ccc(Br)cc2)cc1OC
82	-1.4	CC1=C(C(=O)OC2CCCC(C)C2)C(c2cccc(F)c2)NC(=O)N1 (centres undefined)
83	0.46	CC(=O)C1=C(O)C(=O)N(CC(C)O)C1c1cccc(F)c1 (centres undefined)
84	-0.88	COc1cccc(C2NC(=S)NC(C)=C2C(=O)Nc2ccc(C)cc2C)c1 (centres undefined)
85	1.7	CCOc1ccccc1C1C(C(=O)Nc2ccc(C)cc2C)=C(C)Nc2ncnn21 (centres undefined)
86	0.39	CC1CC(C)CN(CCCNC(=O)Cc2c(C(=O)O)[nH]c3ccc(Cl)cc23)C1 (centres undefined)
87	1.5	O=C(NCc1ccccn1)c1c(O)c2c([nH]c1=O)CCCC2
88	0.59	COc1ccc(C2C(=O)N(C3CCC(C)CC3)CC(=O)N2Cc2ccc(C)cc2)cc1OC (centres undefined)

Sorted by molar mass (descending): 3 of the compounds above
item	Measles inh	SMILES
86	0.39	CC1CC(C)CN(CCCNC(=O)Cc2c(C(=O)O)[nH]c3ccc(Cl)cc23)C1 (centres undefined)
85	1.7	CCOc1ccccc1C1C(C(=O)Nc2ccc(C)cc2C)=C(C)Nc2ncnn21 (centres undefined)
81	0.73	COc1ccc(C(=O)OCC(=O)c2ccc(Br)cc2)cc1OC

Additional results
item	Measles inh	SMILES
89	0.57	CC(C)Cn1c(=O)[nH]c2ccccc21
90	0.43	CCCCn1c(SCC(=O)Nc2ccc(F)cc2)nc2c(sc3ccccc32)c1=O
91	0.81	O=C(CSc1nnc(Cc2ccccc2)o1)N1CCCC1
92	-0.77	CN(c1ccccc1)c1ncnc(N)c1[N+](=O)[O-]
93	-1	O=S(=O)(Nc1ccc2c(c1)OCCO2)c1ccc2c(c1)OCCO2
94	1.6	O=C(Cc1ccc(-n2c(=O)[nH]c3ccsc3c2=O)cc1)N1CCC(N2CCCCC2)CC1
95	-1	COc1ccc(C(=O)Oc2c(Sc3ccc(C)cc3)c(C)nn2C(C)(C)C)c(OC)c1
96	-0.34	Cc1ccc(CCNC(=O)c2cccn3c(=O)c4ccccc4nc23)cc1

Three compounds already listed, sorted by the number in Measles inh, largest number first:
item	Measles inh	SMILES
89	0.57	CC(C)Cn1c(=O)[nH]c2ccccc21
96	-0.34	Cc1ccc(CCNC(=O)c2cccn3c(=O)c4ccccc4nc23)cc1
93	-1	O=S(=O)(Nc1ccc2c(c1)OCCO2)c1ccc2c(c1)OCCO2

Other records:
item	Measles inh	SMILES
97	-1.5	CC(=O)C1=NN(c2ccc(C)c(C)c2)C(c2ccc([N+](=O)[O-])o2)N1C(C)(C)C (centres undefined)
98	0.32	COc1ccc(-c2nc(SCc3ccc(Br)cc3)c3c(=O)n(C)c(=O)n(C)c3n2)cc1
99	-0.29	O=C(Nc1cccc(Cl)c1)c1ccc(F)c(S(=O)(=O)N2CCCCCC2)c1
100	-0.39	Cc1ccc(OCCNc2cc(N3CCCC3)ccc2[N+](=O)[O-])cc1C
101	-1.2	c1ccc(Nc2ncnc3c2cnn3-c2ccccc2)cc1
102	-0.83	COc1ccc(Cl)c(S(=O)(=O)Nc2ccc(OCC(=O)O)cc2)c1
103	-0.91	CC1CCc2c(sc3ncnc(N4CC5(C)CC4CC(C)(C)C5)c23)C1 (centres undefined)
104	0.04	CCCCc1nnc(NC(=O)Cc2ccccc2)s1

Given field by field: part of the list above
100: Cc1ccc(OCCNc2cc(N3CCCC3)ccc2[N+](=O)[O-])cc1C
  Measles inh = -0.39

101: c1ccc(Nc2ncnc3c2cnn3-c2ccccc2)cc1
  Measles inh = -1.2

102: COc1ccc(Cl)c(S(=O)(=O)Nc2ccc(OCC(=O)O)cc2)c1
  Measles inh = -0.83

103: CC1CCc2c(sc3ncnc(N4CC5(C)CC4CC(C)(C)C5)c23)C1 (centres undefined)
  Measles inh = -0.91

The list goes on.
item	Measles inh	SMILES
105	-0.7	Cc1ccc(-c2nc3cc(NS(=O)(=O)c4ccc(C)cc4)ccc3o2)cc1
106	0.64	O=[N+]([O-])c1ccc(C2NCCc3c2[nH]c2ccccc32)cc1 (centres undefined)
107	1.3	COc1ccc(-c2cc(C(F)(F)F)n3nc(C(=O)NC(C)c4ccccc4)c(Cl)c3n2)cc1 (centres undefined)
108	-0.45	COc1ccc(CN2CCN(c3ncnc4sc5c(c34)CC(C)CC5)CC2)cc1F (centres undefined)
109	-1.4	CN1C(=O)N(C)C2NC(=O)NC21 (centres undefined)
110	-0.11	CC(C)(C)C1CCc2nc(N)c3c(=O)oc4ccccc4c3c2C1 (centres undefined)
111	0.24	O=C(c1cc2n(n1)C(C(F)(F)F)CC(c1ccco1)N2)N1CCCCCC1 (centres undefined)
112	0.33	C=CCOC(=O)C1=C(C)NC2=C(C(=O)CCC2)C1c1cccc(O)c1 (centres undefined)
113	1	COc1ccc(-n2c(CNC(=O)c3cccs3)n[nH]c2=S)cc1
114	-0.45	Fc1cccc(Nc2nc(-c3cccnc3)nc3ccccc23)c1
115	-0.31	O=C(CNS(=O)(=O)c1cccc2nsnc12)NCc1ccc(F)cc1
116	0.71	CCOC(=O)C(C)(C)N(Cc1ccccc1Cl)S(=O)(=O)c1ccc([N+](=O)[O-])cc1
117	0.06	COc1ccccc1-c1cc(C(=O)NCc2ccccc2)no1
118	0.42	CC(C)(C)c1ccc(C(=O)Oc2ccc(Cl)cc2)cc1
